Compound activity: PubChem, ICCB-Longwood Screening Facility, Harvard Medical School
S aureus helic = blocks Staphylococcus aureus DNA helicase; purified S. aureus helicase, fluorescence unwinding assay; about half of the hits fall short of the stated cut; actives 0.05% (n = 120,000); inhibition, %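 (tested at about 80 µM)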;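 active = both duplicates at 50% or more, or one of them with a favoured structure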;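 also: 0% = mean of negative control wells and 100% = mean of positive control wells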
MgrA-DNA mod = S. aureus MgrA-DNA binding modulation; AID 602314; inhibition, %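 (about 10 µg/mL by stock and volumes)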; actives 0.13% (n = 84,000); fluorescence polarization;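 active = above 50% in either of two replicates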;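 also: 0% = protein plus DNA without compound and 100% = DNA alone without protein; higher means less MgrA bound to DNA so lower polarization; one replicate is shown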
Numbers without * were called inactive; nt = no result given; & = joins results of further samples.

S aureus helic	MgrA-DNA mod	SMILES
nt	-0.2&1.3	CC(=O)O[C@H]1C(=O)[C@@]2(C)C([C@H](OC(=O)c3ccccc3)[C@]3(O)C[C@H](OC(=O)[C@H](O)[C@@H](NC(=O)c4ccccc4)c4ccccc4)C(C)=C1C3(C)C)[C@]1(OC(C)=O)CO[C@@H]1C[C@@H]2O (stereo partly drawn)
7	-3.2	Cc1cc(OCC(=O)NC(C)(C)C)cc(C)c1Cl
4	nt	COC(=O)/C=C1\NC(=O)CS1
18	nt	CC(C)NC(=O)NC1C2CC3CC(C2)CC1C3 (stereo not drawn)
1	nt	O=C(c1ccco1)N1CCN(C(=O)C2CCCN(c3nnc(-n4cccc4)s3)C2)CC1 (stereo not drawn)
7	nt	CCOC(=O)CSc1nc2c(sc3ccccc32)c(=O)n1CCCC(=O)NC1CCCC1
4	1.8	Cn1c(-c2ccc3ccccc3n2)[n+](C)c2ccccc21
-22	nt	COc1ccc(CC(=O)Nc2nnc(SCc3ccccc3)s2)cc1OC
nt	-1.9	Cc1cc(-c2nnnn2-c2cc(Cl)cc(Cl)c2)no1
9	nt	O=c1[nH]c2ccccc2c(=O)n1/N=C/c1cc(Cl)cc(Cl)c1O
1	nt	Cc1nn(C(C)C(=O)NC(C)C)c(=O)c2cc3sccc3n12 (stereo not drawn)
nt	-0.9	Cc1onc(-c2ccccc2)c1-c1ccnn1S(=O)(=O)c1ccc(Cl)cc1
-12	-5.0	CS(=O)(=O)n1cc(C(F)(F)F)ccc1=O
-2	nt	CS(=O)(=NC(=O)Nc1ccccc1)c1cccs1 (stereo not drawn)
nt	-1.8	Cn1[nH]c(=O)cc1Nc1ccccc1
12	nt	CCOc1ccc(S(=O)(=O)N2CCN=C2c2ccccc2)cc1
nt	1.2	N#CC1C=Cc2ccccc2N1C(=O)c1ccccc1 (stereo not drawn)
15	nt	COc1ccc(C2=NN(CC(=O)NCC(OC)OC)C(=O)CC2)cc1
-17	2.0	COC(=O)C1C(O)=C(C=Nc2ccccc2)C(=O)CC1(C)C (stereo not drawn)
-9	nt	O=c1cc(CNc2cccc(F)c2)nc2ccc(Br)cn12
3	nt	CNC(=O)n1c(C(F)(F)F)nc2ccccc21
nt	-0.6	CC1(C(=O)O)CC1(C)C(=O)O (stereo not drawn)
4	0.5	CCCCN(C)C(=O)c1[nH]c2ccccc2c1Sc1ccc(Cl)cc1
-17	nt	C=CCn1c(C)cc(C(=O)COC(=O)c2cncc(Br)c2)c1C
11	nt	Cc1nn(-c2ccccc2)c2[nH]c(=O)cc(CCl)c12
-7	nt	O=C(O)C1NCCc2ccccc21 (stereo not drawn)
4	0.9	CC(=O)Oc1ccc(-c2nc3ccccc3s2)cc1
-7	nt	CC1CCCC(C)N1C(=O)c1cccc2c1-c1ccccc1C2=O (stereo not drawn)
4	0.6	N#Cc1cnoc1N1CCCc2ccccc21
30	nt	COc1ccccc1N1CCN(C(=O)c2ccc(Cl)cc2)CC1
9	1.6	O=C1/C(=C/c2cccc(F)c2)CS/C1=C\c1cccc(F)c1
nt	-2.1	Cc1ccc(N=C2NC(=O)C(Cc3ccccc3Cl)S2)cc1 (stereo not drawn)
nt	-1.2	O=C(Nc1ccccc1)OCCOc1cc(C(F)(F)F)ccn1
-16	nt	O=S(=O)(NCC1CCCO1)c1cccc2cccnc12 (stereo not drawn)
-1	-3.0	O=C(NCc1ccncc1)C1CCN(C(=O)c2cccc(Cl)c2)CC1
nt	-1.8	COc1ccc(N=Cc2ccc(N(C)CCC#N)cc2)cc1
25	-0.8	N#Cc1ccc(NC(=O)CCCc2ccccc2)cc1
25	0.4	CCn1c2ccccc2c2cc(C#N)ccc21
11	2.2	O=C(O)CCc1nc(=S)[nH][nH]1
-9	2.3	O=C(Nc1cnn(C23CC4CC(CC(C4)C2)C3)c1)c1cc(-c2ccccc2)on1
10	3.4	CCC[N+]1(C)CCC2C(C1)c1ccccc1N2Cc1ccccc1 (stereo not drawn)
15	0.0	C(=N\n1cnnc1)/c1ccccc1
13	1.4	CC1CCc2[nH]c3ccc(C(=O)O)cc3c2C1 (stereo not drawn)
-12	nt	O=C(CSc1ncccc1C(=O)OCCN1C(=O)c2ccccc2C1=O)Nc1ccc2c(c1)OCO2
5	-4.0	CC(C)(C)CC(=O)NCc1ccc(S(N)(=O)=O)cc1
2	-2.4	O=c1cc(CCl)c2cc3c(cc2o1)CCC3
2	nt	O=C(c1cc2c(s1)-c1ccccc1OC2)N(Cc1ccco1)C1CCCCC1
-12	nt	CC(C)CC1(C)NC(=O)N(CC(=O)c2ccc(Cl)s2)C1=O (stereo not drawn)
8	5.8	O=C(OCc1ccc2ccccc2c1)c1ccco1
-4	nt	CN(Cc1ccc(Cl)c(Cl)c1)c1ccc(S(N)(=O)=O)cn1
0	nt	O=C(COC(=O)c1n[nH]c2ccccc12)NCC1CCCCC1
4	nt	CN=C1SC(CC(=O)Nc2ccccc2F)C(=O)N1/N=C/c1ccc(O)c(OC)c1 (stereo not drawn)
6	nt	Cc1cccc(CSc2nc3c(cnn3-c3ccc(Cl)cc3)c(=O)[nH]2)c1
-7	nt	CC(C)Sc1nc2ccccc2n1CN1CCN(c2ccccn2)CC1
0	0.7	CCN(CC)S(=O)(=O)c1ccc(NC(=O)c2ccccc2)cc1
-23	nt	O=c1c2cnn(CCO)c2ncn1Cc1cccc2ccccc12
9	-0.3	CCc1ccc(NC(=O)c2cc3c(s2)-c2ccccc2S(=O)(=O)C3)cc1
8	2.4	CCOC(=O)c1cn(CC2CC2)c2cc(F)c(F)cc2c1=O
nt	-0.5	CCOC(=O)c1cnn(-c2ccc(F)cc2)c1N
nt	3.0	O=C(NC(=O)c1c(F)cccc1Cl)Nc1ccccc1N1CCCCC1

The list continues:
S aureus helic	MgrA-DNA mod	SMILES
-5	nt	CC(=O)Nc1ccc(/C=C(\C#N)C(=O)NC2CCCCC2)cc1
8	-2.3	Nc1cc(-c2ccccc2)c2ccccc2n1
2	0.7	Cc1ccc(-c2ccc(=O)n(CCC(=O)NCCN3C(C)CCCC3C)n2)cc1 (stereo not drawn)
24	nt	FC(F)(F)c1cc(-c2cccs2)nc(=S)[nH]1
nt	-0.8	COc1cccc(C(=O)Nc2ccccc2-c2nc3ccccc3[nH]2)c1
-4	1.6	CCn1c(CNc2nc(-c3ccccc3)cs2)nnc1SCC(=O)c1ccc(OC)cc1
5	nt	Cc1cc(C)nc(Nc2ccccc2O)n1
-3	nt	N#C/C(=C1\CCCCCN1)c1nc2ccccc2[nH]1
-2	-1.2	CC(C)c1oc2cc(O)ccc2c(=O)c1-c1nc2ccccc2n1C
nt	-0.8	O/N=C1/CCCCC1Cn1ccnc1 (stereo not drawn)
-3	nt	CCOC(=O)c1ccoc1CSc1nnc(Nc2ccc(C)cc2)s1
35	nt	CCC(=O)Nc1ccc(-c2nc3ccc(OC(=O)CC)cc3c(=O)o2)cc1
6	-3.1	CCn1cc(C(=O)O)c(=O)c2cc(S(=O)(=O)N(C)C)ccc21
3	nt	O=C(NC(=S)Nc1ccccc1O)C1CCCCC1
4	nt	CCc1nnc(NC(=O)[C@@H](NC(=O)c2cccc(S(=O)(=O)N(CC)CC)c2)C(C)C)s1
2	nt	O=C(c1ccccc1)N(Cc1nnc(-c2ccc(Cl)cc2)o1)C1CC1
7	nt	N#Cc1ccc(OCC(=O)NCC2(N3CCCCC3)CCCCC2)cc1
-11	nt	COC(=O)C1C2C=CC3(CN(C(C)C)C(=O)C13)O2 (stereo not drawn)
nt	-0.7	CC1(C)CC(=O)C2=C(C1)OC1=C(C(=O)CC(C)(C)C1)C2c1ccc(Br)cc1
-11	nt	COc1ccc(-c2nc3ccccc3c(=O)o2)cc1OC
nt	-5.3	NC(=S)c1cncnc1N
7	5.3	Cc1occc1C(=O)Nc1sccc1C(N)=O
20	nt	Cc1cc(-c2csc(CC#N)n2)c(C)n1C1CC1
1	nt	N#C/C(=C(/O)CN1CCN(S(=O)(=O)c2ccc(Cl)cc2)CC1)c1nc2ccccc2[nH]1
nt	1.1	COc1cc([N+](=O)[O-])cc2c1NC(c1ccc(Br)cc1)C1CC=CC21 (stereo not drawn)
23	nt	Cc1cc(C(=O)Cn2c(CO)nc3ccccc32)c(C)n1C
4	nt	N#Cc1ccccc1Cn1c(=O)c2c(ncn2Cc2ccccc2)n(Cc2ccccc2)c1=O
5	nt	O=C(CC1CCCC1)Nc1nc2ccccc2[nH]1
4	2.0	C=C(C)C(=O)NC1=NN(c2ccccc2)C(=O)C1
nt	2.0	c1cnc(Oc2ccc(-n3cccc3)cc2)nc1
-35	nt	O=S(=O)(CCS(=O)(=O)c1ccc(Cl)cc1)c1ccccc1
-10	nt	CN1/C(=C\C(=O)CSc2nncn2-c2ccccc2)C(C)(C)c2ccccc21
-22	nt	CCOc1ccc(NC2=NC(C(=O)Nc3ccccc3)CC(=O)N2)cc1 (stereo not drawn)
nt	-0.2	CCOC(=O)c1c(C)csc1NC(=O)Nc1c(-c2c(Cl)cccc2Cl)noc1C
-22	nt	c1ccc(OCCSc2nnnn2-c2ccccc2)cc1
nt	0.2	CCOC(=O)c1cc(-c2ccccc2)n(-c2ccc(N)cc2)c1C
nt	-0.8	COc1cccc(C2NC(=O)c3ccccc3N2)c1OC (stereo not drawn)
-1	-5.6	CCOC(=O)c1cc(CN2CCOCC2)c(C)o1
1	nt	COCc1c(C(=O)OCCCCN2C(=O)c3ccccc3C2=O)oc2ccccc12
-4	nt	CC1CCc2c(sc(NC(=O)CSc3nnc4n3CCCCC4)c2C(N)=O)C1 (stereo not drawn)
8	2.5	C=CCn1c(N)c(C(=O)NCc2ccccc2)sc1=S
30	nt	CC(C)C(C)NC(=O)CSc1nnc(COc2ccccc2Cl)o1 (stereo not drawn)
16	nt	Cc1ccc(N=C2NN=C(c3ccccc3)C(C(=O)Nc3ccc4c(c3)OCO4)S2)cc1 (stereo not drawn)
14	0.2	Cc1ccccc1NC(=O)C(NS(=O)(=O)c1ccc2c(c1)c(=O)n(C)c(=O)n2C)c1ccccc1 (stereo not drawn)
-11	1.3	Cc1ccc(CSc2nc3ccccc3c(=O)n2-c2ccc(C(=O)N3CCOCC3)cc2)cc1
8	5.8	CC(C)(C)c1ccc(CNc2ccccn2)cc1
nt	-1.3	CN1C2CCC1CC(NC(=O)Cc1ccccc1F)C2 (stereo not drawn)
2	nt	O=C(COC(=O)Cc1cccc2ccccc12)Nc1ccc2[nH]c(=O)[nH]c2c1
5	nt	O=C(NCCc1ccccc1)c1ccccn1
-13	nt	N#Cc1c(NC(=O)CN2C(=O)CCC2=O)sc2c1CCCC2
11	-5.2	CCOc1ccc(NCC(=O)Nc2ccc(F)cc2)cc1
-4	nt	Cc1ccc(-c2cc(C(=O)OCCn3c(C)csc3=O)c3ccccc3n2)o1
35	nt	COCCNC(=O)Cn1cc(S(=O)(=O)N2CCN(c3ccccc3F)CC2)c2ccccc2c1=O
19	nt	COC(=O)Cc1c(-c2ccccc2)c2cc(C)ccc2[nH]c1=O
15	-0.7	Cc1nc2ccccc2c(=O)n1/N=C1\C(=O)N(C)c2ccccc21
-15	nt	CCOC(=O)C1C(=O)C=C(c2ccco2)CC1c1ccccc1 (stereo not drawn)
-2	nt	CCN(CC(=O)NC1CCCc2ccccc21)Cc1nc2ccccc2c(=O)[nH]1 (stereo not drawn)
9	nt	O=C(CSc1nc2c(c(=O)n1-c1ccccc1)SCC2)NCC1CCCO1 (stereo not drawn)
-4	-2.9	Cc1cc(=O)oc2c1c(C)nn2CCO
-11	nt	CCN(Cc1nc2ccccc2c(=O)[nH]1)Cc1nc2cc(C(F)(F)F)ccc2c(=O)[nH]1
4	0.0	COC(=O)C1CCC2C3CC=C4CC(O)CCC4(C)C3CCC12C (stereo not drawn)
9	-1.9	CCOC(=O)c1sc(C)c2c1NC(c1ccc(N(C)C)cc1)NC2=O (stereo not drawn)
9	13	CC(C)(C)C1=Nn2c(nnc2-c2ccccc2)SC1

Sorted by molar mass (lowest first): part of the list above.
S aureus helic	MgrA-DNA mod	SMILES
-4	-2.9	Cc1cc(=O)oc2c1c(C)nn2CCO
8	5.8	CC(C)(C)c1ccc(CNc2ccccn2)cc1
nt	-1.3	CN1C2CCC1CC(NC(=O)Cc1ccccc1F)C2 (stereo not drawn)
11	-5.2	CCOc1ccc(NCC(=O)Nc2ccc(F)cc2)cc1
8	2.5	C=CCn1c(N)c(C(=O)NCc2ccccc2)sc1=S
19	nt	COC(=O)Cc1c(-c2ccccc2)c2cc(C)ccc2[nH]c1=O
-15	nt	CCOC(=O)C1C(=O)C=C(c2ccco2)CC1c1ccccc1 (stereo not drawn)
-13	nt	N#Cc1c(NC(=O)CN2C(=O)CCC2=O)sc2c1CCCC2
15	-0.7	Cc1nc2ccccc2c(=O)n1/N=C1\C(=O)N(C)c2ccccc21
4	0.0	COC(=O)C1CCC2C3CC=C4CC(O)CCC4(C)C3CCC12C (stereo not drawn)
9	-1.9	CCOC(=O)c1sc(C)c2c1NC(c1ccc(N(C)C)cc1)NC2=O (stereo not drawn)
30	nt	CC(C)C(C)NC(=O)CSc1nnc(COc2ccccc2Cl)o1 (stereo not drawn)
2	nt	O=C(COC(=O)Cc1cccc2ccccc12)Nc1ccc2[nH]c(=O)[nH]c2c1
-2	nt	CCN(CC(=O)NC1CCCc2ccccc21)Cc1nc2ccccc2c(=O)[nH]1 (stereo not drawn)
-4	nt	Cc1ccc(-c2cc(C(=O)OCCn3c(C)csc3=O)c3ccccc3n2)o1
9	nt	O=C(CSc1nc2c(c(=O)n1-c1ccccc1)SCC2)NCC1CCCO1 (stereo not drawn)
-4	nt	CC1CCc2c(sc(NC(=O)CSc3nnc4n3CCCCC4)c2C(N)=O)C1 (stereo not drawn)
-11	nt	CCN(Cc1nc2ccccc2c(=O)[nH]1)Cc1nc2cc(C(F)(F)F)ccc2c(=O)[nH]1
16	nt	Cc1ccc(N=C2NN=C(c3ccccc3)C(C(=O)Nc3ccc4c(c3)OCO4)S2)cc1 (stereo not drawn)
-11	1.3	Cc1ccc(CSc2nc3ccccc3c(=O)n2-c2ccc(C(=O)N3CCOCC3)cc2)cc1
14	0.2	Cc1ccccc1NC(=O)C(NS(=O)(=O)c1ccc2c(c1)c(=O)n(C)c(=O)n2C)c1ccccc1 (stereo not drawn)

These rows are one share of the data; the hit share may differ from the screen's.
